High-throughput results (PubChem BioAssay)
HNF4A DNA FP – change in binding of human HNF4 alpha to DNA; HNF4a-FITC DNA binding, fluorescence polarization, 1 h; activity change, % at 10 µM; 360,000 compounds, 0.3% hits; AID 1224865; in the data active means activity change above about 30%, passing the limit was not always enough;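 further: controls were the assay level and a saturating level of protein; the project sought stronger binding though the title names inhibitors; some compounds called inactive have numbers as strong as hits; positive values seem to mean higher polarization but the record does not say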
LANA-H2A inh – blocks KSHV LANA binding to histone H2A/H2B. inhibition, % (concentration not given with the values). 320,000 compounds, 0.6% hits. AID 2629. cell-free LANA-H2A/H2B peptide, fluorescence polarization; in the data active means inhibition mostly above about 10%, no sharp cut-off; inactive means mostly below about 6.7%;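 further: stock transfer was 7.5 nL into about 10 µL; 0% = median of vehicle wells and 100% = median of positive control wells; one replicate is shown; the record names a cut of 25% in any replicate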
Calb FLC – C. albicans growth modulation with fluconazole; C. albicans CaCi-2 (fluconazole-resistant clinical isolate) + fluconazole, Alamar Blue growth, 48 h; growth inhibition, % (no concentration beside the values); 300,000 compounds, 0.57% hits;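 active means most replicates above 75%; inconclusive means exactly half above 75%; inactive means most below 75%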;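 further: all wells also contain fluconazole at 8 µg/ml as a sub-toxic cotreatment; 0% = median of DMSO wells and 100% = median of geldanamycin control wells; wells of about 8 µL received 7.5 nL stock; the first replicate is given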
ALR H2O2 inh – inhibitors of human sulfhydryl oxidase ALR; P55789; purified ALR, DTT oxidation, H2O2 HRP-luminol luminescence; inhibition, % (test concentration not listed); 290,000 compounds, 3.8% hits; AID 485317;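 active means mean and each replicate at 75% or more; inconclusive means only one of the two met; inactive means neither met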;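 further: stock transfer was 7.5 nL into about 7.5 µL; 0% = neutral wells and 100% = wells with inactivated enzyme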
Target sequence (P55789 whole entry, looked up): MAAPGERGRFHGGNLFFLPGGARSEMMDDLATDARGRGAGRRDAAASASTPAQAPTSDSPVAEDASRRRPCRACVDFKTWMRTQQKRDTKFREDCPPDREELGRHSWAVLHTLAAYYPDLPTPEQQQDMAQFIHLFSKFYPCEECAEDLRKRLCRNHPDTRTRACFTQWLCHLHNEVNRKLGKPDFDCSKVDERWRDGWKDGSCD
Vif A3G – inhibitors of Vif binding to APOBEC3G peptide, primary screen, biochemical, TR-FRET, GST-Vif 1-94, biotin-A3G peptide, dose response retest (AID 1117319) | TR-FRET GST-Vif / biotin-A3G peptide binding; higher % means a stronger effect; test concentration not given here; strong numbers were not always called active | one-dose inhibition, %; IC50 in µM for titrated hits | 260,000 compounds, 0.57% hits;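 active means above the screen mean plus three standard deviations and confirmed in dose response; inconclusive means results disagree or hit not tested in dose response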;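 further: Vif residues 1-94 fused to GST binding biotinylated APOBEC3G peptide 110-148; 0% = full assay without inhibitor and 100% = GST in place of GST-Vif; retest series ran down from 100 µM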
RanGTP-Impb inh – inhibitors of RanGTP-importin-beta interaction, primary screen, biochemical, FRET, CFP-Ran, YFP-importin-beta, homogeneous. cell-free CFP-Ran/YFP-importin-beta FRET ratio. inhibition, % (concentration not given with the values). 300,000 compounds, 1.1% hits;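 active means most replicates above 15%; inconclusive means exactly half above 15%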;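 further: 0% = DMSO wells and 100% = Ran loaded with GDP instead of GTP; wells of about 40 µL received 100 nL stock; the first replicate is given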
B2AR ag – human beta-2 adrenergic receptor agonism by FAP; 340,000 compounds, 0.43% hits; P07550; AID 504454; Am2.2-beta2AR cells, FAP receptor internalization, flow cytometry; reference of the scale not given here; response, % (no concentration beside the values);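 active means response above a set limit, near 3 SD of response in nonfluorescent compounds, cut at about 42% in these data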;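 further: stock transfer was 100 nL into about 11 µL; a reference agonist was the positive control; negative values mostly stem from fluorescent compounds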
Target sequence (P07550 whole entry, looked up): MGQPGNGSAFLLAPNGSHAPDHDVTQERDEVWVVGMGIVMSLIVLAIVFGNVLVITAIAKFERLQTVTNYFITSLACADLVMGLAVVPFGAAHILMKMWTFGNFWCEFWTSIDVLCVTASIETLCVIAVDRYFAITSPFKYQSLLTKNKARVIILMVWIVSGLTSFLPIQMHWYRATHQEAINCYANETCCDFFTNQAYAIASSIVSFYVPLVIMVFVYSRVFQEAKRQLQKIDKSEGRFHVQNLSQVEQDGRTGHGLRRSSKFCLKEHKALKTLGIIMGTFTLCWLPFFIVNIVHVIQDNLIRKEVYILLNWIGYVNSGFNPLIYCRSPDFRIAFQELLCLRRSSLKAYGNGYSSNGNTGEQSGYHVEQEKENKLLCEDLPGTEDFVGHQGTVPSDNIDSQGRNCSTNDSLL
* = called active by the depositor; ? = inconclusive; . = not tested or not shown.

Structure	HNF4A DNA FP	LANA-H2A inh	Calb FLC	ALR H2O2 inh	Vif A3G	RanGTP-Impb inh	B2AR ag
CC(CNC(=O)COC(=O)c1cccnc1Cl)c1ccccc1 (configuration not stated)	-0.3	.	.	.	-10%	.	-1
Cc1nn(Cc2c(F)c(F)c(F)c(F)c2F)c(C)c1NC(=O)c1ccc(COc2ccccc2Cl)cc1	-0.5	.	-11	.	0%	8.0	-2
C/C(=N\N1CCN(C)CC1)c1ccc(Cl)c(Cl)c1	1.9	0.3	52	8	14%	-2.9	10
C=CCN(C(=O)CCC(=O)Nc1cc(C)on1)C(C(=O)NC(C)(C)C)c1ccc(OC)cc1 (configuration not stated)	1.3	0.9	0	.	.	-4.5	2
Fc1cc(F)c2nc(N3CCCC3)sc2c1	0.4	0.4	-20	-5	.	-0.5	0
COc1ccc(OCc2cccc(C(=O)Nc3cc(C)on3)c2)cc1	-0.5	3.9	?	-3	-7%	4.2	-10
O=C(Cc1ccccc1)NC(C(=O)O)C(O)c1ccc([N+](=O)[O-])cc1 (configuration not stated)	4.5	4.8	-7	-9	.	-1.1	1
O=C(O)c1cccc(-c2ccc(/C=N/NC(=O)c3cccnc3)o2)c1	-7.0	14	-6	1	9%	-0.9	0
Cc1ccccc1N1C(=O)c2ccccc2NC1c1ccncc1 (configuration not stated)	1.0	-0.7	0	-7	-2%	-4.0	8
CC(=O)c1ccccc1N(C(=O)Cn1nnc2ccccc21)C(C(=O)NCC1CCCO1)c1ccc(N2CCOCC2)cc1 (configuration not stated)	-2.9	-6.2	4	-28	3%	-5.4	-4
COC(=O)Cn1nc(-c2ccccc2)c2ccccc21	0.9	3.0	86*	0	23%	-4.8	-3
COc1ccc(OCCOC(=O)c2ccc(-n3cnnn3)cc2)cc1	0.6	-1.4	0	-20	?	?	6
COC(=O)Cc1cccc2c(=O)c3ccccc3oc12	-2.7	-9.2	-4	-3	-9%	2.4	-1
O=C(CSCc1c(F)cccc1Cl)NCCSCc1ccco1	-3.7	-3.3	-8	.	2%	3.6	0
CCN(CC)c1cc(C)c2cc(NC(=O)c3ccccc3OC)ccc2n1	-4.3	3.8	-3	.	-24%	-1.3	-2
O=C(COC(=O)COc1ccc(Br)cc1)Nc1ccc2c(c1)OCCO2	-4.3	2.6	.	-1	-2%	.	-7
O=C(Nc1nc(-c2ccccn2)cs1)c1cccc(S(=O)(=O)N2CCOCC2)c1	-0.5	-2.2	.	-18	-19%	.	-4
CCC(C)[C@H](NC(=O)N1CCC(Cc2ccccc2)CC1)C(=O)O (some centres not stated)	-1.4	-0.6	-7	-2	2%	1.3	9
CCCCOC(=O)CSC1=C(C#N)C(c2ccc3c(c2)OCO3)CC(=O)N1 (configuration not stated)	0.5	-4.0	0	-5	0%	4.5	3
COc1ccc(OC)c(-c2c3c([nH]c(=S)c2C#N)CCCC3)c1	-0.2	-1.8	10	46	-14%	-3.6	4
O=C(COC(=O)C1CCN(c2ccc(C(F)(F)F)cn2)CC1)c1ccc(F)cc1	8.6	9.4	.	-25	-3%	-1.2	-7
Cn1cncc1C#Cc1c(C=O)[nH]c2ccccc12	3.1	-0.9	.	51	.	.	16
CCC(Oc1ccccc1)C(=O)NCCCN1CCOCC1 (configuration not stated)	-6.5	0.2	-15	8	.	8.5	0
CC(=O)c1c(C)[nH]c(C(=O)Nc2ccc(C)cn2)c1C	-2.2	3.0	5	5	-21%	-0.6	-7
CC1CN(C(=O)COC(=O)/C=C/c2ccc(C(F)(F)F)cc2)CC(C)O1 (configuration not stated)	4.8	-1.2	.	1	-2%	.	-3
COc1ccc(/C=C2/SC(=S)N(CCC(=O)O)C2=O)cc1	-2.4	-0.4	2	-1	-2%	6.4	-6
COc1ccc(CN(CCC(c2ccccc2)C2CCOC(C)(C)C2)C(C)=O)cc1 (configuration not stated)	-3.8	-3.0	-5	5	.	-1.5	-4
CCc1ccc(NC(=S)Nc2ccc(S(=O)(=O)Nc3ncccn3)cc2)cc1	-1.2	-1.5	-2	3	10%	-2.0	1
Cc1ccc(S(=O)(=O)N2CCCCC2C(=O)O)s1 (configuration not stated)	2.3	-3.7	-2	-16	3%	-0.5	6
COc1ccc(/C=N/n2c(SC)nnc(C(C)(C)C)c2=O)cc1OC	2.4	4.2	-3	-15	0%	1.7	-3
COCCNC(=O)C(c1ccncc1)N(C(=O)c1sc(C)nc1C)c1cccc(C)c1 (configuration not stated)	1.4	1.9	-8	-8	16%	-0.2	-1
CCOC(=O)C1CCN(C(=O)CN(c2ccc(OC)cc2)S(=O)(=O)c2c(C)noc2C)CC1	3.7	-1.7	-6	89*	0%	0.4	-2
Cc1ccc(NC(=O)CN2C(=O)N/C(=C/c3ccc(C)o3)C2=O)cc1	5.8	4.8	9	0	31%	-0.7	3
CCCCN(C(=O)C1CC(=O)N(Cc2ccc(C)cc2)C1)c1c(N)n(CC(C)C)c(=O)[nH]c1=O (configuration not stated)	4.6	-12	2	-3	3%	-0.9	6
COc1ccc(Cl)cc1S(=O)(=O)N(C)CC(=O)N1CCCC1	1.0	-1.6	8	-2	.	-0.8	-1
CCC(Sc1nc2ccsc2c(=O)n1Cc1ccc(C(=O)O)cc1)C(=O)Nc1ccc(C)c(Cl)c1 (configuration not stated)	0.1	1.0	3	6	.	0.7	8
Cc1ccc(-c2cc(C(=O)N3CCOCC3)c3ccccc3n2)o1	-0.7	3.5	.	-4	-21%	.	-5
COc1cccc(-n2c(SCc3c(C)noc3C)nnc2-c2cccc(S(=O)(=O)N(C)C)c2)c1	1.1	-0.9	-7	-5	-91%	-2.3	-1
CCOc1ccc(-n2c(N)c(C(=O)NCc3ccco3)c3nc4ccccc4nc32)cc1	-3.1	3.9	19	-9	18%	25*	15
Cc1nnc(C)n1/N=C/c1ccccc1	-1.5	3.6	-6	-6	-3%	5.1	11
CCN(CC)S(=O)(=O)N1CCC(C(=O)NCc2ccc3c(c2)OCO3)CC1	1.8	.	-28	.	7%	4.4	7
O=S(=O)(NCCc1ccccc1)c1ccc(Cl)nc1	-0.8	2.7	2	2	-2%	-0.2	16
COc1ccc(CC(=O)OCC(=O)N2CCCc3ccccc32)cc1OC	-2.0	0.6	.	-1	-4%	-1.0	-1
O=C(COc1ccccc1F)Nc1ccc2c(c1)OCCO2	-1.7	0.1	-2	0	?	-3.6	7
CCCCCCC(C)n1cc(C(C)=O)c(=O)n(C)c1=O (configuration not stated)	3.3	6.8	4	2	-1%	-0.1	-20
Cn1c(SCC(=O)NCc2cccs2)nnc1-c1ccncc1	-0.4	0.4	17	.	-3%	-2.3	-4
O=C(/C=C/c1cccc([N+](=O)[O-])c1)OCC1CCCO1 (configuration not stated)	-2.6	-5.4	2	8	.	-2.8	5
COc1ccc(S(=O)(=O)NCCOc2ccc(Cl)cc2)cc1	-3.2	4.8	.	0	-3%	.	-1
N#Cc1ccccc1Sc1ccccc1C(=O)NCC(c1ccco1)N1CCCCC1 (configuration not stated)	2.2	.	.	1	5%	.	-1
COc1ccc(/C=C(/NC(=O)c2ccccc2)C(=O)N2CCCCC2)cc1OC	2.0	-11	.	-2	.	3.8	-10
CCc1ccccc1NC(=O)CNC(=O)CSC(=S)N1CCCC1	0.9	-6.6	.	-5	-4%	.	0
O=C(Nc1ccccc1Cl)C1CC(=O)N(c2ccccc2)C1 (configuration not stated)	-1.8	-0.1	-2	-2	8%	2.5	0
Fc1ccc(CSc2ncnc3sc4c(c23)CCCC4)cc1	3.2	-5.0	-2	-3	17%	-3.3	-4
Cc1cc2oc(C(=O)Nc3ccc(S(=O)(=O)Nc4ncccn4)cc3)c(C)c2cc1Cl	-0.7	2.7	-10	-4	-1%	.	29
CC(=O)NCCNC(=O)[C@H](Cc1ccccc1)NC(=O)c1cccs1	2.6	-2.2	?	-5	-1%	0.1	-2
O=C1CSc2cc(Cl)ccc2N1	3.2	.	.	.	-10%	.	-8
COc1ccc(N(CC(=O)NC2CCCCC2)C(=O)c2ccc(C)s2)c(OC)c1	0.4	2.8	5	-1	-11%	4.8	-1
COC(=O)c1c(C)oc2ccc(N(C(=O)c3ccncc3)S(=O)(=O)c3ccccc3)cc12	5.2	-6.4	5	1	-8%	-1.1	17
COc1ccc(C(=O)CCN2CCN(c3ccccc3F)CC2)cc1	-3.0	-1.8	-1	.	?	3.4	-2
Cc1cccc(C(=O)N2CCCC(N3CCN(c4cccc(Cl)c4)CC3)C2)n1 (configuration not stated)	-7.1	-5.0	-8	19	.	?	6

3 of the compounds above, with values under each structure:
Values run as follows: HNF4A DNA FP, LANA-H2A inh, Calb FLC, ALR H2O2 inh, Vif A3G, RanGTP-Impb inh, B2AR ag
> Cc1ccc(-c2cc(C(=O)N3CCOCC3)c3ccccc3n2)o1
    -0.7, 3.5, ., -4, -21%, ., -5
> CCN(CC)c1cc(C)c2cc(NC(=O)c3ccccc3OC)ccc2n1
    -4.3, 3.8, -3, ., -24%, -1.3, -2
> COc1ccc(/C=C(/NC(=O)c2ccccc2)C(=O)N2CCCCC2)cc1OC
    2.0, -11, ., -2, ., 3.8, -10

Remaining list, next part.
Structure	HNF4A DNA FP	LANA-H2A inh	Calb FLC	ALR H2O2 inh	Vif A3G	RanGTP-Impb inh	B2AR ag
CC(O)CN(C)CC/C=C1/c2ccccc2CSc2ccccc21 (configuration not stated)	0.1	1.8	1	-6	13%	1.0	4
COC(=O)[C@@H](NC(=O)c1ccccc1)[C@@H](C)O	-4.5	3.4	5	3	.	2.8	3
O=C(CN1CCN(Cc2ccc(Cl)cc2)CC1)N/N=C/c1cccc(F)c1	1.6	2.0	-8	6	7%	-1.2	-7
CC[C@@H]1C(c2cccc(C)c2)=NN(c2ccccc2)[C@H]1C(=O)N1CCOC1=O	8.6	.	.	.	-4%	.	3
Cc1cccc(NC(=O)C2C3CCCCC32)c1 (configuration not stated)	-4.2	-1.4	1	-6	.	-1.7	-5
COc1ccc(CN2CCNC(=O)C2CC(=O)N(C)Cc2cc(C)no2)cc1OC (configuration not stated)	0.1	-3.6	-7	-8	.	2.9	5
O=C(O)CCn1cc(/C=C2\NC(=S)N(c3ccccc3)C2=O)c(-c2ccc(Br)cc2)n1	1.4	-13	32	?	-1%	1.3	7
O=C(CC(C(=O)O)c1ccc(F)cc1)c1ccc(Cl)cc1 (configuration not stated)	1.7	4.6	3	-2	-5%	-3.3	-2
CC(c1ccccc1)N1C(=O)c2ccccc2C1(O)Cc1ccccc1 (configuration not stated)	3.9	-1.0	-7	-1	0%	0.6	13
CCN(Cc1ccc(OC)c(F)c1)C(=O)CCl	6.8	0.0	-3	97*	5%	1.5	1
O=[N+]([O-])c1c(Nc2ccccn2)cc(Cl)c2nonc12	16	3.2	-6	-53	11%	-0.3	63*
CC(C)c1nc2ccccc2n1CC(O)COC1CCCCC1 (configuration not stated)	-1.1	-0.1	-16	-5	0%	2.8	0
Cc1ccc(NC(=O)C(C)OC(=O)Cc2c[nH]c3ccccc23)cc1 (configuration not stated)	1.0	-0.6	4	-13	10%	6.1	8
Cc1ccc(C(=O)NC2CCCCCC2)cc1S(=O)(=O)N1CCOCC1	-1.3	0.3	-7	?	7%	6.0	-6
C/C(=N\NC(=O)c1c[nH]c2ccccc12)c1ccco1	-2.1	0.6	-15	36	-2%	1.5	4
O=C(NCc1cccc(Cl)c1)c1ccc2c(c1)SC1=NS(=O)(=O)CCN12	3.8	16*	3	18	.	5.4	1
